Cruzain Triton – inhibitors of Trypanosoma cruzi cruzain with detergent; Potency, µM, for the others: max response, negative = inhibition, most hits filed as inhibitors; P25779; 200,000 tested, 0.43% active; purified cruzain, Z-FR-AMC fluorescence, 0.01% Triton; active = well fitted curve in the direction sought with a large enough effect; inconclusive = small, poorly fitted or top-dose-only effect, or another doubt; inactive = no such curve, though single readings can be large; an effect the other way counts as inactive or inconclusive;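 also: plate controls were neutral wells for no effect and buffer without enzyme for full effect; nearly all actives have a fitted effect of over 40% in size; top concentration of the series not given in the record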
Target sequence (P25779 123-467 limits assumed): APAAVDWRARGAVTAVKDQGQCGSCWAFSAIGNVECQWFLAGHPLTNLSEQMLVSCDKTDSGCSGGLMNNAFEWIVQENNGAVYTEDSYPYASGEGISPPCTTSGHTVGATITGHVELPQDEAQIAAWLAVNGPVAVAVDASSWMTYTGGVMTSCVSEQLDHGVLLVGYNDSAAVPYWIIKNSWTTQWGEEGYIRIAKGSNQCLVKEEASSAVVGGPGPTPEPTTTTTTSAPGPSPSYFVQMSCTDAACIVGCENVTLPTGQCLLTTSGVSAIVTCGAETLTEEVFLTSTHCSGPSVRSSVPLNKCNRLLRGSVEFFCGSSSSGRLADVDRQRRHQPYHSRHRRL
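Sodium acetate buffer (100 mM, pH 5.5) containing 5 mM DTT and 0.01% Triton X-100 hosted 1.5 nM cruzain and test compound for 15 min at room temperature. Cleavage of 2 uM Z-FR-AMC was then tracked by fluorescence.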
RE007 growth inh – less growth of the S. pombe RE007 Vpr strain | Potency, µM (doses to about 92.2 µM), for the others: top-dose activity change, negative = less growth | S. pombe RE007 Vpr strain, BacTiter-Glo ATP luminescence, 24 h; control for the full effect not named in the record | 360,000 tested, 0.21% active; active = well fitted falling curve with a large enough effect; inconclusive = small, poorly fitted or top-dose-only effect; inactive = no such curve, though single readings can be large or run the other way;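 also: % is scaled to controls: 0 for no effect and ±100 for the full control effect; nearly all actives have a fitted effect of over 50% in size; the assay follows cell death caused by Vpr and the record does not say whether a fall means rescue or toxicity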
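Fission yeast strain RE007, carrying one chromosomally integrated HIV-1 vpr copy, was seeded at OD 0.01 in PMG+AL medium with 23 nL pinned compound. After 24 h at 30 °C and 99% humidity, viability was read by BacTiter-Glo luminescence.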
LASV entry inh – blocks Lassa virus binding to or entry into cells | Potency, µM (doses to about 37.9 µM), without a hit: top-dose activity change, negative = inhibition, hits mostly inhibitors | 300,000 tested, 1.2% active | Lassa virus pseudotype entry inhibition, cell reporter; control for the full effect not named in the record; active means well fitted inhibition curve with a large enough effect; inconclusive means small, poorly fitted or top-dose-only effect, or effect the other way; inactive means flat fitted curve, though single readings scatter; tested in HEK293 cells; also: % is scaled to controls: 0 for no effect and ±100 for the full control effect; nearly all actives have a fitted effect of over 50% in size; luciferase read-out
StopGo reporter – lowers the luciferase signal of an FMDV 2A StopGo reporter; Potency, µM (series often up to 57.9 µM), inactives show at the top dose signal change, negative = less light; 410,000 tested, 1.2% active; AID 1159524; human cells with a luciferase reporter of 2A StopGo recoding; control for the full effect not named in the record; active = well fitted falling curve with a large enough effect; inconclusive = small, poorly fitted or top-dose-only effect; inactive = no such curve, though single readings can be large or run the other way; tested in HEK293T cells; also: % is scaled to controls: 0 for no effect and ±100 for the full control effect; nearly all actives have a fitted effect of over 45% in size; luciferase light after 4 h
SARS PLP yeast – SARS-CoV PLP inhibition in yeast; S. cerevisiae expressing SARS-CoV PLpro, growth rescue; control for the full effect not named in the record; Potency, µM (highest dose often 32.9 µM), inactives show top-dose activity, positive = growth rescue; 330,000 tested, 0.19% active; also: 0% is about no effect; nearly all actives have a fitted effect of over 55% in size; growth read by luminescence after 48 h
NS1 function inh – influenza NS1 inhibition; 270,000 tested, 0.4% active; Potency, µM (highest dose often 46.1 µM), inactives show top-dose activity, positive = more growth; S. cerevisiae slowed by influenza A NS1, growth recovery by OD600; also: actives are rising curves; nearly all actives have a fitted effect of over 50% in size
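S. cerevisiae expressing influenza A NS1, grown in glucose, washed, then diluted 1:100 into pH 6.0 -URA galactose medium with 23 nl compound. Growth recovery read as OD600; NS1-free strain serves as control.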
MARV entry inh – blocks Marburg virus binding to or entry into cells | Marburg virus pseudotyped entry inhibition, cell reporter; control for the full effect not named in the record; about a third of the inactives were read at about 46 µM | Potency, µM (series often up to 37.8 µM), for inactives: at the top dose activity change, negative = inhibition, hits mostly inhibitors | 300,000 tested, 1.8% active | AID 540276; active = well fitted inhibition curve with a large enough effect; inconclusive = small, poorly fitted or top-dose-only effect, or effect the other way; inactive = flat fitted curve, though single readings scatter; tested in HEK293 cells; about a fifth of its hits are not listed in these tables; also: % is scaled to controls: 0 for no effect and ±100 for the full control effect; luciferase read-out
Cruzain noTriton – blocks cruzain activity in detergent-free assay; P25779; AID 1476; 200,000 tested, 2.3% active; Potency, µM, without a hit: max response, negative = inhibition, hits mostly inhibitors; purified cruzain, Z-FR-AMC fluorescence, no detergent; active = well fitted curve in the direction sought with a large enough effect; inconclusive = small, poorly fitted or top-dose-only effect, or another doubt; inactive = no such curve, though single readings can be large; an effect the other way counts as inactive or inconclusive;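 also: plate controls were enzyme without inhibitor for no effect and buffer without enzyme for full effect; nearly all actives have a fitted effect of over 40% in size; top concentration of the series not given in the record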
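Detergent-free condition (0.00005% Triton X-100) in acetate buffer pH 5.5 with DTT. 1.5 nM enzyme and compound were pre-mixed 15 min, then 2 uM Z-FR-AMC substrate added; reaction progress from fluorescence change between first and third reads (60 s).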
* hit, by the source's call; ? = inconclusive; nt = not tested or not shown; [ ] = another dose, or the depositor's remark. Unless noted, calls follow the shape of the dose curve; as a rule, active means well fitted rising curve with a large enough effect; inconclusive means small, poorly fitted or top-dose-only effect; inactive means no such curve, though single readings can be large or run the other way. Potency is read from the fitted curve at half-maximal effect.

SMILES	Cruzain Triton	RE007 growth inh	LASV entry inh	StopGo reporter	SARS PLP yeast	NS1 function inh	MARV entry inh	Cruzain noTriton
Cc1cccc(N2CCN(S(=O)(=O)c3cccs3)CC2)c1C	nt	-12%	nt	?	-7%	0%	?	nt
C=CCNC(=S)N1CCOCC1	nt	1%	?	-9%	0%	-1%	-13%	nt
Cc1ccsc1/C=N/Nc1nc2ccccc2s1	-28%	-23%	?	-10%	-60%	?	?	?
Cc1ccc(CNC(=O)CS(=O)Cc2nc(-c3ccccc3C)oc2C)cc1 (stereo not given)	3.7%	-3%	nt	-7%	6%	-5%	nt	25%
C/C(=N\NC(=O)C1CC1)c1ccc(OC(F)F)cc1	nt	1%	nt	33%[activator]	-1%	-3%	17%[46.1 µM]	nt
COc1ccccc1OCCNC(=O)c1ccc(NC(=O)CC2SC(N3CCCC3)=NC2=O)cc1 (stereo not given)	nt	5%	-9%	-22%	nt	nt	1%	nt
Cc1ccc(CNC(=O)CCS(=O)(=O)c2cc3c(cc2Cl)NC(=O)CO3)o1	nt	-5%	nt	-10%	6%	-1%	nt	nt
CC1CN(CC(O)COC2CCC(C(C)(C)C)CC2)CC(C)O1 (stereo not given)	nt	12%	26%[46.1 µM]	14%	-10%	nt	?	nt
CCCN(Cc1nnc(-c2ccccc2Cl)o1)C(=O)c1cc([N+](=O)[O-])cc([N+](=O)[O-])c1	nt	9%	2%[46.1 µM]	-11%	-1%	nt	?	nt
OC(COc1ccccc1)CSc1ncn[nH]1 (stereo not given)	7.4%	1%	12%	-8%	5%	11%	6%	-1%
COc1cccc(C(=O)Nc2nc3ccccc3s2)c1	nt	?	nt	-9%	-5%	-15%	nt	nt
COc1ccc(N2CC(C(=O)Nc3ccc4c(c3)OCO4)CC2=O)cc1 (stereo not given)	0.4%	-11%	31%	14%	4%	-9%	-4%	12%
COC(=O)c1ccc(NC(=S)N2CCN(Cc3ccc(Cl)cc3)CC2)cc1	-5.6%	16%	-1%	-27%	3%	-37%	?	3%
CCCCCCCC1CC(CSC(=N)N)OC1=O (stereo not given)	4.9%	0%	4%	0%	-8%	-1%	?	8%
COC(=O)c1c(NC(=O)C2C3CCC(C3)C2C(=O)O)sc2c1CCCCC2 (stereo not given)	nt	19%	11%	45%[activator]	1%	7%	1%[46.1 µM]	nt
Cc1ccc(CN2CCSc3ccc(C(=O)NC4CCN(Cc5ccccc5)CC4)cc32)cc1	nt	6%	?	-27%	-4%	nt	?	nt
CCCOP(=O)(OCCC)C1(Nc2ccc(C)cc2)CCCCC1	-4.9%	5%	2%	-9%	-6%	-56%	?	?
CCN(CCCNC(=O)c1ccc(Sc2ccc(C)cc2)c(NC(C)=O)c1)c1cccc(C)c1	0.1%	nt	?	-24%	nt	nt	nt	22%
O=C(NCC1CCCCC1)c1ccc(Br)o1	nt	-21%	-10%[46.1 µM]	4%	9%	-39%	10%[46.1 µM]	nt
COc1ccc(-c2cc(C(F)(F)F)nc(SCC(=O)NCc3cnn(C)c3C)n2)cc1OC	-11%	-6%	-6%	-26%	22%	-5%	8%	7%

Entries listed so far containing an aryl thioether with sulfur outside any ring:
SMILES	Cruzain Triton	RE007 growth inh	LASV entry inh	StopGo reporter	SARS PLP yeast	NS1 function inh	MARV entry inh	Cruzain noTriton
OC(COc1ccccc1)CSc1ncn[nH]1 (stereo not given)	7.4%	1%	12%	-8%	5%	11%	6%	-1%
CCN(CCCNC(=O)c1ccc(Sc2ccc(C)cc2)c(NC(C)=O)c1)c1cccc(C)c1	0.1%	nt	?	-24%	nt	nt	nt	22%
COc1ccc(-c2cc(C(F)(F)F)nc(SCC(=O)NCc3cnn(C)c3C)n2)cc1OC	-11%	-6%	-6%	-26%	22%	-5%	8%	7%

More results follow.
SMILES	Cruzain Triton	RE007 growth inh	LASV entry inh	StopGo reporter	SARS PLP yeast	NS1 function inh	MARV entry inh	Cruzain noTriton
COc1cc(C2C(C(=O)c3ccc(C)o3)=C(O)C(=O)N2CCN2CCOCC2)ccc1OCCC(C)C (stereo not given)	nt	4%	16%	37%[activator]	-1%	-13%	?	nt
CCCCNC(=O)C(=O)c1ccccc1NC(C)=O	3.0%	3%	-7%	21%	-1%	8%	0%	-1%
O=C(Nc1ccc2c(c1)OCCO2)c1cccn(Cc2ccccc2)c1=O	-12%	nt	?	8%	nt	nt	nt	15%
O=S(=O)(NCCc1ccccc1)c1cccs1	nt	-7%	5%[46.1 µM]	53%[activator]	0%	3%	-1%[46.1 µM]	nt
COc1cc(-c2cc(-c3ccccc3)nc(SCC(=O)Nc3nccs3)c2C#N)cc(OC)c1OC	-3.9%	3%	-4%	-2%	1%	3%	-27%	?
CCOc1ccccc1C(C(=O)NC1CCCCC1)N(C(=O)c1csnn1)C1CC1 (stereo not given)	nt	15%	-16%[46.1 µM]	12%	-1%	15%	10%[46.1 µM]	nt
O=[N+]([O-])c1cc(S(=O)(=O)N2CCCC2)ccc1NN=C1CCCCC1	0.6%	13%	-8%	-3%	-5%	12%	16%	19%
COc1cccc(N2CCN(CC(=O)c3c(C)[nH]c4ccccc34)CC2)c1	-15%	-11%	3%	-10%	11%	-2%	?	6%
COCCn1nnnc1C(c1cccs1)N1CCN(c2cccc(C(F)(F)F)c2)CC1 (stereo not given)	-9.5%	9%	?	-29%	-5%	-9%	?	?
COC(=O)c1ccccc1OCCCCN1CC(C)OC(C)C1 (stereo not given)	3.4%	2%	-3%	-13%	5%	4%	17%	-1%
NC(=S)n1[nH]c(-c2ccc([N+](=O)[O-])cc2)c(N=Nc2cccc([N+](=O)[O-])c2)c1=O	nt	-6%	?	?	-1%	?	?	nt
Cc1cc(C)cc(OC(C)C(=O)Nc2nc3c(s2)CCCC3)c1 (stereo not given)	-8.8%	nt	-7%[46.1 µM]	-22%	nt	nt	0%[46.1 µM]	-10%
CC1CCN(S(=O)(=O)c2ccc(NC(=O)C3CC(=O)N(c4ccccc4)C3)cc2)CC1 (stereo not given)	nt	18%	nt	-11%	0%	19%	-12%[46.1 µM]	nt
C/C(Cc1ccccc1)=N\NC(=O)CNC(=O)c1ccc(Br)cc1	3.3%	-5%	-3%	3%	7%	12%	0%	0%
COc1ccccc1CNC(=O)CC1C(=O)NCCN1C1Cc2ccccc2C1 (stereo not given)	nt	-1%	-10%[46.1 µM]	4%	7%	4%	?	nt
CCOc1ccc(-n2c(-c3ccc(Cl)cc3)c[n+]3c2SCC3)cc1	nt	-7%	-9%[46.1 µM]	?	-1%	nt	?	nt
O=C(OCC1CCCO1)c1ccc2c(c1)N(Cc1cccc(F)c1)C(=O)c1ccccc1S2(=O)=O (stereo not given)	-2.2%	nt	-12%[46.1 µM]	-8%	nt	nt	nt	-20%
C=C(C)Cn1c(N2CCC(Cc3ccccc3)CC2)nc2c1c(=O)[nH]c(=O)n2C	-11%	84%	?	?	-11%	-40%	?	18%
O=C(COC(=O)c1ccccc1NC(=O)c1ccco1)Nc1ccc2c(c1)OC(F)(F)O2	-9.9%	-12%	18%	-7%	-1%	4%	-24%	-15%
Cc1cc(C)nc(Sc2c(F)c(F)c(C(F)(F)F)c(F)c2F)n1	-6.0%	5%	12%	-22%	1%	-21%	-2%	24%

Reprinted at random: 4 entries already listed
SMILES	Cruzain Triton	RE007 growth inh	LASV entry inh	StopGo reporter	SARS PLP yeast	NS1 function inh	MARV entry inh	Cruzain noTriton
OC(COc1ccccc1)CSc1ncn[nH]1 (stereo not given)	7.4%	1%	12%	-8%	5%	11%	6%	-1%
O=S(=O)(NCCc1ccccc1)c1cccs1	nt	-7%	5%[46.1 µM]	53%[activator]	0%	3%	-1%[46.1 µM]	nt
C=CCNC(=S)N1CCOCC1	nt	1%	?	-9%	0%	-1%	-13%	nt
COc1ccc(N2CC(C(=O)Nc3ccc4c(c3)OCO4)CC2=O)cc1 (stereo not given)	0.4%	-11%	31%	14%	4%	-9%	-4%	12%

The listing continues.
SMILES	Cruzain Triton	RE007 growth inh	LASV entry inh	StopGo reporter	SARS PLP yeast	NS1 function inh	MARV entry inh	Cruzain noTriton
O=C(NCc1ccco1)c1ccc2c(c1)N(Cc1c(F)cccc1Cl)C(=O)c1ccccc1S2	-2.8%	nt	?	-2%	nt	nt	?	?
Cc1nc2ccccc2nc1OCC(=O)Nc1ccc2ccccc2c1	0.3%	nt	3%	-11%	4%	7%	-7%	-16%
CN1/C(=C/c2cccc[n+]2C)Sc2ccccc21	nt	?	nt	?	-2%	-6%	nt	nt
CC(=O)Nc1ccc(C=C2C(=O)NC(=O)NC2=O)cc1	nt	-2%	?	12%	nt	nt	6%	nt
CC1CCCN(C/C=C/c2ccccc2[N+](=O)[O-])C1 (stereo not given)	3.1%	-5%	5%	7%	2%	-1%	-2%	0%
Cc1c(NC(=O)c2ccc(S(=O)(=O)N3CCOCC3)cc2)c(=O)n(-c2ccccc2)n1C	nt	-17%	7%	-16%	1%	-1%	3%[46.1 µM]	nt
COc1cccc(CN2CC(C(=O)NC3CCC3)CCC2=O)c1 (stereo not given)	nt	3%	0%	3%	21%	4%	4%[46.1 µM]	nt
COC(=O)C(C)(C)ONC(=O)Nc1ccc(Br)cc1	-1.5%	-6%	4%	6%	27%	-8%	?	6%
COc1ccc(-n2nnnc2CNC(=O)C(=O)c2c[nH]c3ccccc23)cc1	nt	9%	?	-22%	-1%	nt	7%[46.1 µM]	nt
O=C(CCCC(=O)OCC(Cl)=C(Cl)Cl)Nc1cccc(F)c1	2.6%	?	-3%	-16%	0%	7%	-2%	5%
O=[N+]([O-])c1c(Nc2ccccn2)cc(Cl)c2nonc12	nt	8.9µM*	?	13µM*	-19%	-87%	1%[46.1 µM]	nt
C/C(=N\NC(=O)c1cc(Br)ccc1O)c1cccc(NC(=O)c2ccccc2F)c1	nt	12%	-2%	8%	-10%	-40%	?	nt
CCOC(=O)C(NC(=O)C1C(C)N1S(=O)(=O)c1ccc(C)cc1)C(=O)OCC (stereo not given)	nt	2%	nt	-18%	-3%	13%	nt	nt
COc1ccccc1NC(=O)Nc1ccc(NC(=O)c2ccccc2O)cc1	nt	-6%	nt	-1%	-1%	-5%	nt	nt

Screening data from PubChem.
